YopH PTP inh: YopH tyrosine phosphatase inhibitors, primary screen, biochemical, fluorescence Ex485/Em525; inhibition, %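 (about 10 µM by stock and volumes)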; 140,000 tested, 0.16% active;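 active means inhibition of 50% or more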;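 further: controls were vehicle for no effect and minimum signal wells for full effect; inactives centre near -20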
Mtb betalactam: beta-lactam sensitization of Mtb H37Rv, H37Rv; inhibition, % at 25 µM; M. tuberculosis H37Rv growth with meropenem, percent inhibition; hits of this screen are not shown here; 330,000 tested, 0.27% active; AID 434955, 2010;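 active means about 74% or more and at least 40 points above the plate without the antibiotic, then above 30% in a dose series; inconclusive means first-round hits that could not be retested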;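 further: growth measured after seven days incubation then overnight dye step; 0% = bacteria only wells and 100% = bacteria with antibiotic; twin plates without the antibiotic show which effects depend on it; some results filed as inactive read as strong as hits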
RecA intein inh: Mtb RecA intein splicing inhibitors, primary screen, biochemical, fluorescence, HTS. 290,000 tested, 0.75% active. inhibition, %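 (about 9 µM by stock and volumes)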. AID 2221, 2009. cell-free RecA intein splicing. Protein RecA (Mycobacterium tuberculosis (strain ATCC 25618 / H37Rv)), P9WHJ3; in the data active means inhibition above about 30%; inconclusive means no clear call, values can overlap the other calls;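 further: 0% = vehicle wells and 100% = reference inhibitor control wells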
Target sequence (P9WHJ3 whole entry, looked up): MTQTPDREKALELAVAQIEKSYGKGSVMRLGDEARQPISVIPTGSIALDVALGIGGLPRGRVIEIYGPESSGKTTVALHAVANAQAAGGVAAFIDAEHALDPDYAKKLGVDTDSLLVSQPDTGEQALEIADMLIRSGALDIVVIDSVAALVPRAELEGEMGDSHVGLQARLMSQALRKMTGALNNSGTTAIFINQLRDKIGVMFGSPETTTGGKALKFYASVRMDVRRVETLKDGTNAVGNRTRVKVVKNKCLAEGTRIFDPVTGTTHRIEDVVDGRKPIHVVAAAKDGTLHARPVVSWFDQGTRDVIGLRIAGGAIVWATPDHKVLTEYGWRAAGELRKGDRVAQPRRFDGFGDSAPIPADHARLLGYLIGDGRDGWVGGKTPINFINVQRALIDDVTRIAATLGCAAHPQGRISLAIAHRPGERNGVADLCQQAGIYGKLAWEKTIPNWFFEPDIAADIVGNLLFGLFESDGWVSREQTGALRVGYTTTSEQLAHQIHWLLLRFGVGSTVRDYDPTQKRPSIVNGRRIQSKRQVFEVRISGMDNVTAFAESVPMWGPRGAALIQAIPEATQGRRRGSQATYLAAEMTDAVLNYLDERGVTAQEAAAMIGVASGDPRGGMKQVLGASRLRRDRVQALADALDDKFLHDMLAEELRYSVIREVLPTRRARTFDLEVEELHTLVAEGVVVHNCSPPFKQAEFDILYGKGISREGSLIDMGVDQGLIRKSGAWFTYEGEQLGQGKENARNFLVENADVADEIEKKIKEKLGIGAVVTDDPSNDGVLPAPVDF
Arbovirus inh: antivirals against arbovirus infection, primary screen, cell-based, full library, 10K replicate subset; arbovirus infection cell-based antiviral screen; inhibition, % at 10 µM; 200,000 tested, 0.37% active; AID 1251, 2008;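 active means inhibition from about 30%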;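 further: bluetongue infection of BSR cells; cell survival read as ATP light after 72 h; 0% = infected wells without compound and 100% = uninfected wells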
Mtb growth: M. tuberculosis H37Rv growth inhibitors, H37Rv strain (AID 1626) | M. tuberculosis H37Rv growth inhibition; higher % means a stronger effect | inhibition, % at 10 µM, or IC50 in µM where a hit was titrated | 220,000 tested, 0.95% active;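 active means confirmed in a dose series; inconclusive means inhibition above 80% but not taken into the dose series; inactive means below 80% or under 30% at every dose of the series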;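 further: bacteria incubated seven days before Alamar blue readout; 0% = bacteria only wells and 100% = bacteria with antibiotic wells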
Arbovirus inh repeat: further read-out of Arbovirus inh, marked with its call; inhibition, %; measured here: 10K subset replicate screen; many hits read low in the repeat;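 first of two repeat runs on a subset; 0% = infected and 100% = uninfected wells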
An asterisk follows results filed as active; ? = inconclusive; . = no result given. Only part of the results is shown, so the mix of outcomes need not match the whole.

SMILES | YopH PTP inh | Mtb betalactam | RecA intein inh | Arbovirus inh | Mtb growth | others
CC(/C=N/NC(=O)c1cccs1)=C\c1ccco1 | . | 83 | 5.3 | 12 | 29%
C=CCn1c(O)c(C(CC)=Nc2cccc(C(=O)O)c2)c(=O)[nH]c1=O | . | -1 | 0.1 | . | 1%
CCOC(=O)C1CCN(C(=O)Nc2ccc(NC(=O)C3CCN(C(=O)OCC)CC3)cc2)CC1 | -21 | -4 | -3.1 | 3 | -8%
C#CCOc1c(Br)cc(/C=N/O)cc1OCC | -9 | 3 | 1.6 | 3 | 4%
O=C(O)c1ccc(NCc2ccncc2)cc1 | 4 | -6 | -0.6 | 2 | -6%
Cc1ccn2c(=O)c(C(=O)O)cnc2c1 | . | -9 | -1.9 | . | -3%
Cc1cccc(NC2=NCC(=O)N2Cc2cccs2)c1 | . | 1 | -2.9 | 2 | -7%
N#CC1=C(N)N(c2ccccc2C#N)C2=C(C(=O)CCC2)C1c1ccsc1 (centres undefined) | -23 | -21 | 1.7 | 5 | 0%
O=C(COC(=O)CNC(=O)c1ccccc1)Nc1nnc(-c2ccccc2)o1 | . | 6 | 0.6 | . | .
CC(C)(C)c1nc(SCC(=O)Nc2nc3c(s2)CCCC3)c2ccccc2n1 | -7 | 97 | 11 | 5 | 7%
O=C(Nc1ccn(C2CC(OC(=O)c3ccccc3)C(CO)O2)c(=O)n1)c1ccccc1 (centres undefined) | -37 | -5 | 1.8 | 6 | 4%
CCCOC(=O)c1ccc(NC(=O)CSC2=Nc3ccccc3C3CC=NN23)cc1 (centres undefined) | -3 | 96 | 0.2 | -12 | 15%
O=[N+]([O-])c1ccc(/C=N/n2c(C3CCCCC3)n[nH]c2=S)cc1 | -18 | 4 | -0.9 | 2 | -7%
CC(NC(=O)c1ccc(CS(=O)(=O)c2cccc(C(F)(F)F)c2)o1)c1ccc2c(c1)OCCO2 (centres undefined) | -10 | -7 | 2.8 | -5 | -2%
COc1ccc(OC)c(S(=O)(=O)NCC(c2cccs2)N2CCc3ccccc3C2)c1 (centres undefined) | . | -21 | 8.3 | . | .
O=C(c1sc2cc(F)ccc2c1Cl)N1CCN(c2cccc(Cl)c2)CC1 | -29 | -1 | 10 | 3 | 8%
CCOC(=O)c1cccc(NC(=O)C2CCCN(c3nnc(N4CCCC4=O)s3)C2)c1 (centres undefined) | . | 3 | -0.9 | . | .
O=C(NCC(c1ccco1)N1CCc2ccccc2C1)C(=O)Nc1ccccc1 (centres undefined) | . | 2 | -2.3 | . | .
O=C(CCC1CCCN(Cc2cccc3c2OCO3)C1)NCc1ccc(F)c(F)c1 (centres undefined) | . | -2 | 1.7 | -6 | 0%
O=C(NCCc1nc2ccccc2[nH]1)/C(=C/c1ccco1)NC(=O)c1ccc(Br)o1 | -15 | -2 | 2.7 | -16 | -4%
COc1ccccc1C(c1c(N)n(C)c(=O)n(C)c1=O)C(C)[N+](=O)[O-] (centres undefined) | . | . | 1.5 | . | -3%
COc1ccc(CN2CCN(Cc3ccco3)CC2)cc1OC | . | 2 | 1.6 | . | .
O=C(CCCN1C(=O)c2ccccc2C1=O)NCCCn1ccnc1 | . | 1 | -0.4 | 2 | 1%
O=C(Nc1nnc(C(F)(F)F)s1)c1cccnc1 | -7 | 1 | -1.1 | -1 | 7%
O=C(CCc1nc2ccccc2s1)OCC(=O)c1ccccc1 | -9 | 4 | 5.2 | -7 | 9%
CC1(C)Cc2c(sc(NC(=O)COc3ccc(Cl)cc3)c2C#N)C(C)(C)N1 | . | 2 | -0.5 | . | .
CC(=O)NCCN=C(C)c1sc2ccccc2c1O | -44 | 0 | -1.4 | 6 | 4%
COc1cccc(N2CC(C(=O)Nc3nnc(SCC(=O)Nc4ccc(NC(C)=O)cc4)s3)CC2=O)c1 (centres undefined) | . | -4 | 6.8 | . | .
N#Cc1ccc(-c2ccc3c(c2)OCO3)nc1SCC(=O)OCc1ccccc1 | 2 | -6 | 3.0 | 4 | 6%
CCN(CC)C1CCN(Cc2cn[nH]c2-c2ccc(OC)c(F)c2)C1 (centres undefined) | . | -4 | 2.7 | 1 | 4%
COC(=O)C1=C(c2cccc(OC)c2OC)C[C@@H]2CC[C@H]1N2C(=O)NC(C)C | . | -6 | -0.9 | . | -2%
COc1ccc(-c2c(C)n([O-])c(C)c(C)[n+]2=O)cc1OC | -50 | -6 | 1.3 | -1 | .
CCOC(=O)C1CCN(Cc2ccc(C(=O)OC)cc2)CC1 | 3 | -12 | 1.4 | 5 | -8%
CC1=NN(c2ccccc2)C(=O)C1/C=C1/NC(=S)NC1=O (centres undefined) | . | -2 | 18 | . | -12%
C=C(C)CSc1nnc(-c2cccc(S(=O)(=O)N(C)C)c2)n1-c1cc(OC)ccc1OC | 0 | -8 | 2.0 | 1 | 4%
O=C1Nc2ccccc2O/C1=C\c1ccccc1 | . | 5 | -2.6 | . | .
Cc1cc(N2CCN(C)CC2)nc2ccc(NC(=O)CCC(=O)NCCCOC(C)C)cc12 | . | 1 | -3.9 | . | .
Cc1ccsc1C(=O)N1CCCC(CO)(Cc2ccccc2)C1 (centres undefined) | . | -3 | 3.8 | . | .
COc1ccc(S(=O)(=O)N(C)CC(=O)NCCC2=CCCCC2)cc1OC | -37 | -2 | 1.9 | -9 | 0%
CN1CCN(S(=O)(=O)c2ccc(-c3noc(C4CCN(S(C)(=O)=O)CC4)n3)cc2)CC1 | -28 | 1 | 1.1 | -2 | -2%
COc1ccc2c(CC(=O)OCC(=O)Nc3cccc(S(N)(=O)=O)c3)coc2c1 | . | -6 | 0.4 | . | -5%
O=C(CC1N=C2c3ccccc3N=C(SCc3ccc(Cl)cc3)N2C1=O)NCc1ccco1 (centres undefined) | -2 | 7 | . | 3 | 3%
CC(C)C(C)NC(=O)COC(=O)c1cccc(C(=O)OCC(=O)NC(C)C(C)C)n1 (centres undefined) | . | 5 | 0.1 | 9 | -1%
COCCCN1C(=O)C(=O)/C(=C(/O)c2ccc(S(=O)(=O)N3CCOCC3)cc2)C1c1cccc(Cl)c1 (centres undefined) | . | 3 | 3.0 | . | .
CCN(C(=O)c1cnc(NC(C)C)cc1C(F)(F)F)c1ccc(Cl)cc1 | . | -1 | 4.7 | . | -7%
Cc1cc(CNCc2c(C(=O)N(C)Cc3ccccc3)nc3ccccn23)nn1C | . | -1 | -1.7 | 3 | 1%
CC(C)NC(=O)CSc1nc(-c2cccs2)cc(-c2ccccc2)c1C#N | -11 | 13 | . | -4 | -2%
CCOc1ccc(N(CC(=O)Nc2cccc(F)c2)S(=O)(=O)c2c(C)noc2C)cc1 | -33 | 1 | . | -2 | 0% | Arbovirus inh repeat=-5

No new results follow: two of the compounds above.
SMILES | YopH PTP inh | Mtb betalactam | RecA intein inh | Arbovirus inh | Mtb growth | others
COCCCN1C(=O)C(=O)/C(=C(/O)c2ccc(S(=O)(=O)N3CCOCC3)cc2)C1c1cccc(Cl)c1 (centres undefined) | . | 3 | 3.0 | . | .
CCN(C(=O)c1cnc(NC(C)C)cc1C(F)(F)F)c1ccc(Cl)cc1 | . | -1 | 4.7 | . | -7%

Further entries.
SMILES | YopH PTP inh | Mtb betalactam | RecA intein inh | Arbovirus inh | Mtb growth | others
O=C(Nc1ccc2c(c1)CCC2)c1ccc(Br)s1 | . | 100 | 4.9 | 3 | ?
Cc1ccccc1C(=O)N1CCC(C(=O)Nc2ccccn2)CC1 | . | -13 | -1.0 | . | .
COc1ccc(NC(=O)CCS(=O)(=O)c2cccc3nonc23)cc1Cl | . | 85 | 0.6 | . | .
CN1CCN(c2cc(C(F)(F)F)nc3ccc(F)cc23)CC1 | . | -5 | -1.7 | . | 0%
N#C/C(=C1\CCCN1)c1nc2ccccc2c(=O)[nH]1 | -36 | -5 | 1.8 | -5 | -12%
CC1CC(C)CN(S(=O)(=O)CCNC(=O)c2ccccc2)C1 (centres undefined) | . | -8 | 1.4 | . | .
COc1ccc(N2CC(C(=O)Nc3cccc(OC(C)C)c3)CC2=O)cc1 (centres undefined) | . | 0 | -2.5 | . | .
Cc1ccc(C2C(C#N)=C(N)N(N(C)C)C3=C2C(=O)CCC3)cc1 (centres undefined) | -14 | 2 | -0.6 | 9 | -5%
Cc1c(CC(=O)N2C[C@H]3C[C@@H](C2)c2cccc(=O)n2C3)c(=O)oc2c(C)c(O)ccc12 | . | -5 | -70 | . | .
CC(Oc1ccc(Cl)cc1Cl)C(=O)Nc1ccc2oc(-c3ccncc3)nc2c1 (centres undefined) | 9 | 74 | 1.2 | 3 | 2%
N#C/C(=C/c1ccc(CNS(=O)(=O)c2ccccc2)o1)C(=O)NCc1ccccc1 | -28 | -4 | 4.3 | 1 | 8%
Cc1[nH]c2ccccc2c1C(=O)C(=O)Nc1ccc2c(c1)OCO2 | . | -2 | -1.0 | . | .
COc1cc(C(CCN2CCCC(C)C2)c2c(OC)cc(OC)c3c2OC(=O)CC3c2ccc(N(C)C)cc2)cc(OC)c1OC (centres undefined) | . | -3 | 4.1 | . | -6%
Cc1cc(Br)ccc1NC(=O)CN(C)C(=O)c1cc([N+](=O)[O-])ccc1N1CCOCC1 | . | -3 | 0.0 | . | .
C=C(C)COc1ccc(-c2n[nH]c(C)c2-c2ccc(OC)c(OC)c2)c(O)c1 | . | 8 | 0.1 | . | 6%
C=CCn1c(-c2ccc(Cl)cc2)c[nH]c1=S | -3 | 91 | 3.7 | 5 | 4%
O=C(CNS(=O)(=O)c1ccc(Br)cc1)N1CCN(c2ccc(F)cc2)CC1 | -2 | -8 | 1.3 | 10 | 3%
CN(C(=O)COC(=O)/C=C/c1ccc(Cl)c(Cl)c1)c1c(N)n(Cc2ccccc2)c(=O)[nH]c1=O | . | 1 | -1.4 | . | .
Nc1nc(NCc2ccco2)nn1-c1ccccc1 | -42 | 4 | 2.1 | -7 | -13%
Cc1ccc(C)c(S(=O)(=O)N2CCN(C(=O)c3ccccc3Cc3ccccc3)CC2)c1 | . | 0 | 2.5 | . | .
CSc1ncccc1C(=O)OCC(=O)Nc1ccc2c(c1)OCO2 | . | 2 | -0.7 | -4 | 1%
COc1cccc(OCCNc2cc(N3CCOCC3)ccc2[N+](=O)[O-])c1 | -6 | 99 | 2.8 | -2 | 14%
Cc1ccc(C)c(C(=O)COC(=O)c2cc(Cl)nc3ccccc23)c1 | -23 | 82 | -2.4 | -4 | 14%
CCn1c(O)c(C=Nc2ccccc2)sc1=S | . | 3 | . | -1 | 6%

Random excerpt: 4 entries already listed
SMILES | YopH PTP inh | Mtb betalactam | RecA intein inh | Arbovirus inh | Mtb growth | others
CN(C(=O)COC(=O)/C=C/c1ccc(Cl)c(Cl)c1)c1c(N)n(Cc2ccccc2)c(=O)[nH]c1=O | . | 1 | -1.4 | . | .
Cc1ccc(C)c(S(=O)(=O)N2CCN(C(=O)c3ccccc3Cc3ccccc3)CC2)c1 | . | 0 | 2.5 | . | .
Cc1ccc(C)c(C(=O)COC(=O)c2cc(Cl)nc3ccccc23)c1 | -23 | 82 | -2.4 | -4 | 14%
Cc1cc(Br)ccc1NC(=O)CN(C)C(=O)c1cc([N+](=O)[O-])ccc1N1CCOCC1 | . | -3 | 0.0 | . | .

The list continues:
SMILES | YopH PTP inh | Mtb betalactam | RecA intein inh | Arbovirus inh | Mtb growth | others
CN(Cc1ccccc1)Cc1c(O)ccc2ccccc12 | . | -1 | -0.4 | . | .
O=C(O)CCN(CCC(=O)O)c1ccccc1 | -11 | -10 | -0.8 | 2 | -2%
Cc1ccc(C2C(C#N)=C(N)Oc3cc(N)ccc32)cc1 (centres undefined) | . | -8 | -13 | . | .
CCN(c1ccc(N=Cc2c(O)n(Cc3ccc(OC)cc3)c(=O)c3ccccc23)cc1)C(C)C | . | . | . | 11 | 18%
O=C(NCc1ccc(F)cc1)C1CCCN(c2cnccn2)C1 (centres undefined) | . | -2 | 0.9 | . | .
COc1cccc(CNC(=O)CCNC(=O)N2CCn3c2nc2ccccc23)c1 | . | 10 | -1.5 | . | .
Cc1ccc(C(=O)N2CCN(S(C)(=O)=O)C2)cc1 | -23 | -4 | 0.5 | -4 | -6%
COCCCn1c(-c2ccc(Cl)cc2)n[nH]c1=S | -5 | -14 | -0.5 | 11 | 2%
COc1ccc(C(=O)Cn2c(=N)n(C)c3ccccc32)cc1 | . | 0 | -1.2 | . | -5%
Cc1ccc(C)c(NC(=O)CC2Oc3ccccc3NC2=O)c1 (centres undefined) | . | 0 | -2.1 | . | .
Cc1ccn2cc(-c3cc4ccccc4oc3=O)nc2c1 | . | . | . | -11 | 7%
O=c1oc2c(-c3cccc(F)c3)cc(O)cc2s1 | . | 79 | 0.3 | -35 | ?
CCOC(=O)C(NC(C)=O)(Nc1cccc(F)c1)C(F)(F)F (centres undefined) | -13 | -8 | -1.5 | 1 | -2%
Cc1ccc(-n2c(O)c(C=Nc3ccc(S(N)(=O)=O)cc3)c(=O)[nH]c2=O)cc1 | . | 3 | -2.0 | 8 | -3%
